# NS1 inh: blocks influenza NS1 protein function. S. cerevisiae slowed by influenza A NS1, growth recovery by OD600. Potency, µM (series often up to 46.1 µM), without a hit: at the highest dose activity, positive = more growth. 270,000 tested, 0.4% active; active means well fitted rising curve with a large enough effect; inconclusive means small, poorly fitted or top-dose-only effect; inactive means no such curve, though single readings can be large or run the other way; note: nearly all actives have a fitted effect of over 50% in size
#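 S. cerevisiae expressing influenza A NS1, grown in glucose, washed, then diluted 1:100 into pH 6.0 -URA galactose medium with 23 nl compound. Growth recovery read as OD600; NS1-free strain serves as control.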
# RE007 growth inh: less growth of the S. pombe RE007 Vpr strain; S. pombe RE007 Vpr strain, BacTiter-Glo ATP luminescence, 24 h; control for the full effect not named in the record; Potency, µM (highest dose often 92.2 µM), inactives show top-dose activity change, negative = less growth; 360,000 tested, 0.21% active; AID 651644; active = well fitted falling curve with a large enough effect; inconclusive = small, poorly fitted or top-dose-only effect; inactive = no such curve, though single readings can be large or run the other way;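 note: % is set by controls: 0 for no effect and ±100 for the full control effect; nearly all actives have a fitted effect of over 50% in size; the assay follows cell death caused by Vpr and the record does not say whether a fall means rescue or toxicity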
#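 Fission yeast RE007 carrying one integrated HIV-1 vpr copy, seeded at OD 0.01 in PMG+AL medium with 23 nL pinned compound. Grown 24 h at 30 degrees; viability read by BacTiter-Glo luminescence after 5 min.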
# Lassa entry inh: inhibitors of Lassa virus binding or cell entry | Lassa virus pseudotype entry inhibition, cell reporter; control for the full effect not named in the record | Potency, µM (titrated, usually from 37.9 µM), for the others: at the top dose activity change, negative = inhibition, hits mostly inhibitors | 300,000 tested, 1.2% active | AID 540256; active means well fitted inhibition curve with a large enough effect; inconclusive means small, poorly fitted or top-dose-only effect, or effect the other way; inactive means flat fitted curve, though single readings scatter; tested in HEK293 cells; note: % is set by controls: 0 for no effect and ±100 for the full control effect; nearly all actives have a fitted effect of over 50% in size; luciferase read-out
# SARS PLpro yeast: inhibitors of SARS-CoV papain-like protease in yeast. S. cerevisiae expressing SARS-CoV PLpro, growth rescue; control for the full effect not named in the record. 330,000 tested, 0.19% active. AID 485353. Potency, µM (series often up to 32.9 µM), for the others: top-dose activity, positive = growth rescue; active means well fitted rising curve with a large enough effect; inconclusive means small, poorly fitted or top-dose-only effect; inactive means no such curve, though single readings can be large or run the other way; note: 0% is about no effect; nearly all actives have a fitted effect of over 55% in size; growth read by luminescence after 48 h
# Cruzain inh Det: inhibitors of Trypanosoma cruzi cruzain with detergent; 200,000 tested, 0.43% active; Potency, µM, without a hit: max response, negative = inhibition, actives largely listed as inhibitors; P25779; purified cruzain, Z-FR-AMC fluorescence, 0.01% Triton; AID 1478;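 note: plate controls were neutral wells for no effect and buffer without enzyme for full effect; nearly all actives have a fitted effect of over 40% in size; top concentration of the series not given in the record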
# Target sequence (P25779 123-467 limits assumed): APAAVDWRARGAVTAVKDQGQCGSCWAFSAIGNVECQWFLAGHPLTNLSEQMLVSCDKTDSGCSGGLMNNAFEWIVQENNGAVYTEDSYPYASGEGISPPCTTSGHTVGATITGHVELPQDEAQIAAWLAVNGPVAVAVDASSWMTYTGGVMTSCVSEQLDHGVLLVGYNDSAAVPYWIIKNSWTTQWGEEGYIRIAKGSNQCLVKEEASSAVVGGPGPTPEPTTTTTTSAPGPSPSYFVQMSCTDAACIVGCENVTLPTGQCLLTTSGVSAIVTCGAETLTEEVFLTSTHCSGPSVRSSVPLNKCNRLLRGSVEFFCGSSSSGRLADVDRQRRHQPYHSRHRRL
#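 Detergent-containing run (0.01% Triton X-100) in acetate buffer pH 5.5 with 5 mM DTT: enzyme at 1.5 nM final, 15 min compound preincubation at room temperature, then 2 uM Z-FR-AMC substrate. Activity taken as 60 s fluorescence increase at 360/450 nm.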
# MARV entry inh: inhibitors of Marburg virus binding or cell entry; Marburg virus pseudotyped entry inhibition, cell reporter; control for the full effect not named in the record; about a third of the inactives were read at about 46 µM; Potency, µM (top dose mostly 37.8 µM), inactives show top-dose activity change, negative = inhibition, hits mostly inhibitors; 300,000 tested, 1.8% active; active = well fitted inhibition curve with a large enough effect; inconclusive = small, poorly fitted or top-dose-only effect, or effect the other way; inactive = flat fitted curve, though single readings scatter; tested in HEK293 cells; about a fifth of its hits are not listed in these tables; note: % is set by controls: 0 for no effect and ±100 for the full control effect; luciferase read-out
# StopGo reporter: FMDV 2A StopGo reporter, luciferase signal. human cells with a luciferase reporter of 2A StopGo recoding; control for the full effect not named in the record. Potency, µM (highest dose often 57.9 µM), for inactives: top-dose signal change, negative = less light. 410,000 tested, 1.2% active. AID 1159524; active = well fitted falling curve with a large enough effect; inconclusive = small, poorly fitted or top-dose-only effect; inactive = no such curve, though single readings can be large or run the other way; tested in HEK293T cells; note: % is set by controls: 0 for no effect and ±100 for the full control effect; nearly all actives have a fitted effect of over 45% in size; luciferase light after 4 h
# Cruzain inh noDet: cruzain (T. cruzi) inhibition without detergent; purified cruzain, Z-FR-AMC fluorescence, no detergent; AID 1476; 200,000 tested, 2.3% active; P25779; Potency, µM, for inactives: max response, negative = inhibition, actives largely listed as inhibitors;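 note: plate controls were enzyme without inhibitor for no effect and buffer without enzyme for full effect; nearly all actives have a fitted effect of over 40% in size; top concentration of the series not given in the record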
#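 Detergent-free condition (0.00005% Triton X-100) in acetate buffer pH 5.5 with DTT. 1.5 nM enzyme and compound were pre-mixed 15 min, then 2 uM Z-FR-AMC substrate added; reaction progress from fluorescence change between first and third reads (60 s).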
# Active calls of the source: *; ? = inconclusive; nt = no result given; & = joins results of further samples; [ ] = another dose, or the depositor's remark. Unless noted, calls come from the whole dose curve; as a rule, active = well fitted curve in the direction sought with a large enough effect; inconclusive = small, poorly fitted or top-dose-only effect, or another doubt; inactive = no such curve, though single readings can be large; an effect the other way counts as inactive or inconclusive. Potency is the fitted concentration of half-maximal effect.
SMILES,NS1 inh,RE007 growth inh,Lassa entry inh,SARS PLpro yeast,Cruzain inh Det,MARV entry inh,StopGo reporter,Cruzain inh noDet
COc1ccc(NC(=O)CCc2c(C)nc3nc(C)nn3c2C)cc1,-14%,1%,4%,4%,2.5%,-6%,5%,-1%
CN(C)S(=O)(=O)c1cccc(C(=O)Nc2ccc3c(c2)CCC3)c1,4%,0%,?,-1%,nt,?,-7%,nt
COc1ccc(N2CC(NC(=O)N3CCc4ccccc43)CC2=O)cc1OC (stereo not drawn),nt,10%,?,-2%,nt,?,3%,nt
O=S(=O)(NCCN1CCCC1)c1ccc(Cl)cc1,-1%,5%,4%[46.1 µM],-2%,nt,-2%[46.1 µM],27%,nt
COC(=O)c1cc(Br)c(=O)n(-c2cccc(F)c2)c1,15%,10%,2%,3%,1.7%,7%,-22%,0%
Cc1nc(CNS(=O)(=O)c2ccccc2F)cs1,-15%,6%,8%,9%,2.3%,21%,-20%,2%
Cc1cc(C=C2C(=O)c3ccccc3C2=O)c(C)n1C,6%,11%,-14%,-38%,-3.6%,?,-11%,-2%
Cc1ccc(C(=O)Nc2cc3[nH]c(=O)oc3cc2C)cc1,4%,-1%,nt,-1%,nt,0%,17%,nt
CN(C)S(=O)(=O)c1ccc(Cl)c(C(=O)NC2CCCCCCC2)c1,5%,0%,nt,11%,nt,2%[46.1 µM],-23%,nt
Cc1ccc(N(CC(O)Cn2nc(C)cc2C)S(=O)(=O)c2ccc3ccccc3c2)cc1 (stereo not drawn),-5%,nt,-25%,-21%,-6.5%,?,2%,-16%
Cc1cccc(-c2nc(CCNC(=O)Cc3ccc(F)cc3)cs2)c1,nt,nt,-13%[46.1 µM],nt,-4.6%,nt,-6%,24%
Cc1cc(C)nc(N/N=C/C2=C(N3CCOCC3)C(=C\c3ccc(Cl)cc3)/CC2)n1,25%,-6%,-18%,19%,-9.6%,-1%,-4%,-21%
Nc1cccnc1S(=O)(=O)c1cccc(C(F)(F)F)c1,nt,6%,-30%,nt,nt,6%[46.1 µM],-6%,nt
COc1n[nH]c(C(=O)NCc2ccccc2)c1[N+](=O)[O-],nt,6%,-13%,-2%,nt,5%,-4%,nt
CCOC(=O)c1sc(Nc2cccc(C)c2C)nc1C,-7%,nt,nt,-5%,-6.5%,-2%,nt,-19%
CCN(CC)C(=O)c1sc2c(c1C)c(=O)n(-c1ccccc1)c(=O)n2CC(=O)N(CC)c1cccc(C)c1,nt,nt,-24%[46.1 µM],nt,2.7%,nt,-1%,-2%
COC(=O)c1cccc(C(=O)N2CCCC(Nc3ccc(C)c(C)c3)C2)c1 (stereo not drawn),-5%,-9%,2%[46.1 µM],-1%,nt,0%[46.1 µM],-12%,nt
CCOC(=O)N1CCN(c2c(NCCCN3CCCC(C)C3)c(=O)c2=O)CC1 (stereo not drawn),4%,-5%,nt,-2%,3.5%,nt,-12%,10%
Oc1cccc2cnccc12,3%,-3%,nt,1%,nt,nt,-3%,nt
COc1ccccc1CN1CC(C(=O)N(C)Cc2nc(C)cs2)CCC1=O (stereo not drawn),8%,-12%,nt,-1%,nt,nt,36%[activator],nt
O=c1ccn(-c2cccc(C(F)(F)F)c2)nc1-c1ccn(-c2cccc(Cl)c2)n1,16%,18%,-24%,5%,-6.7%,-17%,0%,?
CN(C)/C=C(\C=O)c1c(Cl)cccc1Cl,0%,3%,nt,1%,nt,nt,11%,nt
COc1ccccc1N(C)S(=O)(=O)c1ccc(C(=O)OCC(=O)N2CCCCCC2)cc1,nt,-4%,16%,-1%,nt,-5%[46.1 µM],?,nt
O=C1CCc2cc(S(=O)(=O)NC(C(=O)NCc3cccnc3)c3ccccc3)ccc2N1 (stereo not drawn),-1%,-6%,nt,-2%,3.3%,1%,-11%,-3%
O=C1N/C(=N/N=C/c2ccccc2)SC1(c1ccccc1)c1ccccc1,14µM*,-6%,1%,15%,0.9%,-1%,nt,4µM*
# Further compounds:
SMILES,NS1 inh,RE007 growth inh,Lassa entry inh,SARS PLpro yeast,Cruzain inh Det,MARV entry inh,StopGo reporter,Cruzain inh noDet
CC(=O)c1cccc(NC(=O)COC(=O)Cc2ccc(Cl)cc2)c1,nt,-4%,10%[46.1 µM],2%,nt,-3%,-22%,nt
CCN(CC)S(=O)(=O)c1ccc(OC)c(NC(=O)c2ccc3c(c2)OCO3)c1,nt,-6%,-20%,-1%,nt,-19%[46.1 µM],-16%,nt
O=C(NCCc1ccccc1)Nc1ccc2c(c1)OCO2,-4%,9%,nt,-1%,nt,nt,59%[activator],nt
COc1ccc2c(c1OC)C(=O)OC2N1C(=O)CC[C@H]1C(=O)Nc1ccc(F)cc1F (stereo partly drawn),-11%,5%,nt,-6%,nt,nt,-17%,nt
O=C1CCc2cc(S(=O)(=O)NC(Cc3ccccc3)C(=O)N3CCN(c4ccccn4)CC3)ccc2N1 (stereo not drawn),nt,-1%,?,2%,nt,0%,-10%,nt
O=S(=O)(c1ccc(Br)s1)N1CCCCC1,-6%,-1%,21%,3%,0.4%,-8%,nt,6%
CCC(NC(=O)COc1cc2c(c3oc(=O)c(C)c(C)c13)CCC(C)(C)O2)C(=O)O (stereo not drawn),-1%,-5%,-11%[46.1 µM],-1%,nt,-11%[46.1 µM],32%[activator],nt
Cc1cc(-c2ccccc2)nc(N(C)NC(=O)c2c(F)cccc2F)c1S(C)(=O)=O,9%,0%,-28%,17%,-8.4%,-28%[46.1 µM],-14%,19%
CCC1(c2ccc(F)cc2)NC(=O)N(CC(=O)Nc2ccc(C)c(S(=O)(=O)N3CCOCC3)c2)C1=O (stereo not drawn),-15%,3%,-9%,1%,nt,-8%[46.1 µM],?,nt
Cc1cc(C)n(-c2cc(C(C)(C)C)nc3c(-c4ccccc4)cnn23)n1,0%,4%,?,-1%,nt,?,3%,nt
CC(C)(C)NS(=O)(=O)c1ccc(Oc2ncc(C(F)(F)F)cc2Cl)cc1,-23%,6%,?,-16%,-12%,?,-15%,8%
O=[N+]([O-])c1ccc2c(c1)nc1n2CCN(c2ccccc2)C1,-41%,2%,nt,-2%,nt,nt,-14%,nt
CCn1cc(C(=O)N2CCCCC2)c(=O)c2cc(S(=O)(=O)N3CCC(C)CC3)ccc21,0%,6%,-13%,-3%,-2.4%,7%&7%,5%,3%
CC(C)CN(C(=O)CN1CCN(c2ccccc2F)CC1)c1c(N)n(CC(C)C)c(=O)[nH]c1=O,1%,7%,22%,11%,-2.3%,?,-19%,0%
Cc1c(C(=O)NCC(c2ccco2)N2CCCC2)oc2ccc(Cl)cc12 (stereo not drawn),-6%,-8%,nt,-2%,nt,nt,-17%,nt
O=C(NNc1ccccc1[N+](=O)[O-])Nc1cccc(Cl)c1,5%,-9%,nt,-2%,nt,nt,-2%,nt
CC(=O)c1c(C)[nH]c(C(=O)N(C)CC(=O)Nc2ccc(Cl)c(C(F)(F)F)c2)c1C,13%,-1%,2%[46.1 µM],?,nt,-8%[46.1 µM],-13%,nt
Cc1ccc(-c2nc3ccccc3[nH]2)cc1NC(=O)c1sc2cc(Cl)ccc2c1Cl,-23%,-9%,14%,-13%,-2.8%,-19%,22%,7.9µM*
CC(=O)Nc1ccc(NS(=O)(=O)c2ccc3[nH]c(=O)[nH]c3c2)cc1,nt,-22%,12%,0%,nt,7%[46.1 µM],2%,nt
CCOC(=O)c1noc(C)c1C(=O)Nc1cccc(F)c1,-4%,-19%,3%,-2%,0.0%,0%,-20%,-2%
CCC(Sc1nc(-c2ccccc2)c(C#N)c(=O)[nH]1)C(=O)Nc1nnc(C)s1 (stereo not drawn),13%,35%,?,5%,-7.4%,19%[46.1 µM],27%,-1%
COCCN1C(=O)c2ccc(C(=O)NCc3ccco3)cc2C1=O,-2%,-2%,nt,?,nt,nt,-14%,nt
CC1(C)CN=C(c2ccccc2)NC1,nt,3%,12%[46.1 µM],nt,nt,1%[46.1 µM],-3%,nt
CC(=O)c1ccc(-c2ccc(C(=O)NC3CC(C)(C)NC(C)(C)C3)o2)cc1,nt,3%,8%,3%,nt,-22%,16%,nt
O=C(O)c1cccc(N=NN2CCOCC2)c1,3%,7%,-3%,0%,nt,?,48%[activator],nt
# Remaining list, next part:
SMILES,NS1 inh,RE007 growth inh,Lassa entry inh,SARS PLpro yeast,Cruzain inh Det,MARV entry inh,StopGo reporter,Cruzain inh noDet
O=C(NCc1ccco1)c1cccc(S(=O)(=O)N2CCOCC2)c1,5%,-2%,-7%,5%,2.0%,-15%,8%,9%
COc1ccc(/C=N\NC(=O)c2sccc2C)cc1Cn1nc(C)cc1C,-24%,-7%,nt,3%,nt,nt,-14%,nt
O=C(CN1CCOCC1)N/N=C/C=C/c1ccccc1,nt,1%,2%,-2%,nt,25%[46.1 µM],-4%,nt
CCC1(CC)NC(=O)N(CC(=O)OCC(=O)NC(=O)c2ccccc2)C1=O,nt,21%,?,0%,nt,14%,-5%,nt
Nc1nc(=S)[nH]c2c1C1(CCCC1)Cc1ccccc1-2,?,22%,22%,-2%,0.8%,-27%,-3%,?
CCOc1ccccc1N(CC(=O)N(C)Cc1ccccc1)S(=O)(=O)c1ccccc1,0%,-6%,?,1%,nt,-27%,1%,nt
COC(=O)c1ccc(Cn2nc(C)c(Br)c2C)cc1,-36%,-16%,-14%,1%,-2.8%,-16%,-18%,-6%
Cc1ccc(C(C(=O)NC(C)(C)C)N(CC2CCCO2)C(=O)c2csnn2)cc1 (stereo not drawn),7%,0%,9%[46.1 µM],1%,nt,-13%[46.1 µM],-4%,nt
CCC(=O)Nc1ccc(C(=O)NNC(=O)C(c2ccccc2)c2ccccc2)cc1,?,2%,-1%,9%,-2.1%,-8%,-22%,?
NC(=O)CC(NC(=O)c1ccccc1)c1ccc(NCCc2ccc(F)cc2)c([N+](=O)[O-])c1 (stereo not drawn),?,-5%,nt,1%,nt,nt,-23%,nt
O=C(Cc1ccccc1)N1CCCC(c2nc(-c3cccs3)no2)C1 (stereo not drawn),-1%,0%,2%,-1%,-2.9%,2%,-10%,8%
CCOCCCNc1nc2c(S(=O)(=O)c3ccc(CC)cc3)nnn2c2ccc(Cl)cc12,nt,nt,nt,nt,-1.9%,4%[46.1 µM],-9%,-7%
CCC(C)NC(=O)Cn1nc(C(F)(F)F)c2c1CCC2 (stereo not drawn),2%,12%,13%[46.1 µM],1%,nt,2%[46.1 µM],-3%,nt

# Source: PubChem
